gsp antag – antagonists of gsp mutant (McCune-Albright syndrome). 340,000 tested, 0.4% active. Potency, µM (highest dose often 76.9 µM), for inactives: top-dose activity change, negative = inhibition, most hits filed as inhibitors. gsp-mutant cells, cAMP HTRF, 30 min; control for the full effect not named in the record; active = falling curve of any shape with a large fitted effect; inconclusive = falling curve, mostly with a smaller effect; inactive = flat or rising curve; cell line not stated here;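 note: intracellular cAMP measured with PDE inhibitor Ro 20-1724 present during compound exposure; potency is the fitted concentration of half-maximal effect; % is set by controls: 0 for no effect and ±100 for the full control effect; nearly all actives have a fitted effect of over 65% in size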
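G418-selected cells were plated in DMEM/10% FBS for 16-24 h at 37C, then treated with compounds plus the PDE inhibitor […] (300 uM solution added) for 30 min at 37C. Intracellular cAMP was measured by HTRF after 30 min lysis at room temperature.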
D2 PAM – potentiates the human D2 dopamine receptor allosterically | potentiation, % (test concentration not listed) | P14416 | 360,000 tested, 0.23% active | AID 624464 | DiscoveRx D2 beta-arrestin cells, luminescence, 90 min; 100% = 57 uM dopamine signal; active = potentiation of 50% or more; inconclusive = 30% to 50%; inactive = 30% or less;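 note: compound concentration not given in the record; tested on top of an EC20 dose of dopamine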
Target sequence (P14416 whole entry, looked up): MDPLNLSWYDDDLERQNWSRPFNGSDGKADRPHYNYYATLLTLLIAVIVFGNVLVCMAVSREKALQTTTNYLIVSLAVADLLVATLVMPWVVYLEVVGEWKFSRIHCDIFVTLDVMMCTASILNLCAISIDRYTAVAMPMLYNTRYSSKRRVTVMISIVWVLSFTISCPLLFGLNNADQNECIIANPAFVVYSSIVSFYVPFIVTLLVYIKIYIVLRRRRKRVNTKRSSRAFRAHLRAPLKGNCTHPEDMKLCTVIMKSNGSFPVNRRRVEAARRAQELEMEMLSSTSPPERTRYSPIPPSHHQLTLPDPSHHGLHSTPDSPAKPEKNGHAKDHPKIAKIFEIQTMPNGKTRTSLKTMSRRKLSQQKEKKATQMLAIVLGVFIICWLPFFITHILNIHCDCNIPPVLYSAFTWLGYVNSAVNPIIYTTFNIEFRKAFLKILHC
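PathHunter beta-arrestin assay in DiscoveRx D2 cells. Compounds were added with an EC20 of dopamine (50 nM final) for 90 min at 37 deg C. Luminescence was read 1 h after detection reagent, with 57 uM dopamine as the EC100 control.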
Sfp PPTase inh – inhibitors of Bacillus subtilis Sfp phosphopantetheinyl transferase | Q9F4F7 | Biochemical Sfp PPTase activity, qHTS | Potency, µM, for inactives: max response, negative = inhibition, usual class: inhibitors | 310,000 tested, 3.5% active | AID 1490; active = well fitted inhibition curve with a large enough effect; inconclusive = small, poorly fitted or top-dose-only effect, or another doubt; inactive = no such curve, though single readings can be large or run the other way;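 note: the enzyme is Sfp with the accession as filed and its product quenches rhodamine fluorescence; potency is the fitted concentration of half-maximal effect; 0% = enzyme reaction without inhibitor and -100% = no enzyme wells; top concentration of the series not given in the record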
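With Hepes-Na pH 7.6 buffer containing 10 mM MgCl2, Sfp (15 nM) modified BHQ-2-YbbR (12.5 uM) using rhodamine-CoA (5 uM). Two reads 30 minutes apart at 525/598 nm yielded each well's rate.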
ClpP mod – qHTS Assay for Activators of ClpP; ATP-dependent Clp protease proteolytic subunit (Bacillus subtilis (strain 168)), P80244; purified B. subtilis ClpP, FRET peptide cleavage, 20 min; Potency, µM (top dose mostly 57.5 µM), inactives show at the highest dose activity change, negative = active; 340,000 tested, 1.9% active; AID 651965, 2013; active = well fitted falling curve with a large enough effect; inconclusive = small, poorly fitted or top-dose-only effect; inactive = no such curve, though single readings can be large or run the other way; note: potency is the fitted concentration of half-maximal effect; the source files actives as falling curves though it sought activators and does not explain the sign; nearly all actives have a fitted effect of over 65% in size; many hits overshoot -100%
Target sequence (P80244 whole entry, looked up): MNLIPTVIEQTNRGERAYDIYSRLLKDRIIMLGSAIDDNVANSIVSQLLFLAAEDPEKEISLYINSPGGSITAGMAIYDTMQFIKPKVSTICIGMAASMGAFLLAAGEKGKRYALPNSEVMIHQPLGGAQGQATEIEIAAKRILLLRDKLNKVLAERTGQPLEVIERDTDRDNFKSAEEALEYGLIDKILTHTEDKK
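Purified B. subtilis ClpP, 10 microg/mL final in Tris/HCl pH8 with KCl, BSA, glycerol and Tween-20, cleaved an Abz/nitrotyrosine-quenched decapeptide. Fluorescence (ex 320, em 430) was read at 0 and 20 min at room temperature. Delta was normalized to 5.8 microM ADEP and DMSO/no-enzyme controls.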
Menin MLL FP FL – displaces fluorescein MLL peptide from human menin; FP activity change, % at 61.4 µM; 290,000 tested, under 10 active; AID 1766; Fluorescence polarization, fluorescein-MLL peptide displacement from menin; inconclusive = falling polarisation curve, or a change in total fluorescence; inactive = total fluorescence flat and polarisation flat or rising; no compound was filed as active; the % refers to the polarisation; negative = inhibition;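 note: % of control where 0% means no effect; inhibitors lower the polarisation; unlabelled MLL peptide was the positive control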
gsp ag – activates gsp, the McCune-Albright syndrome mutation; 340,000 tested, 0.13% active; Potency, µM (titrated, usually from 76.9 µM), without a hit: at the top dose activation (cAMP increase), usual class: activators; gsp mutant cells, cAMP HTRF, 30 min; control for the full effect not named in the record; active = well fitted activation curve with a large enough effect; inconclusive = small, poorly fitted or top-dose-only effect, or another doubt; inactive = no such curve, though single readings can be large or run the other way; cell line not stated here;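 note: phosphodiesterase inhibitor Ro 20-1724 added with compounds to block cAMP breakdown; potency is the fitted concentration of half-maximal effect; nearly all actives have a fitted effect of over 60% in size; about a fifth of the inactives were tested at one dose only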
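Cells stably selected in G418 were plated at 2000/well, grown 16-24 hr, then given compounds in DMSO with the PDE inhibitor […] (300 uM solution added) for 30 min at 37C; cAMP was read by HTRF.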
TRPV1 potentiator – human TRPV1 potentiation; AID 540277; 320,000 tested, 0.02% active; TRPV1-expressing cells, Fluo-8 calcium influx, capsaicin EC20 potentiation; host cell line not named in the record; control for the full effect not named in the record; potentiation, % at 8.33 µM; active means potentiation above 80%; inconclusive means 30% to 80%; inactive means below 30%; note: 0% is about no effect
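Cells expressing TRPV1 were dye-loaded with Fluo-8 and read kinetically: 10 s baseline, 3 min after compound (agonist portion), then 2 min after EC20 capsaicin (allosteric enhancer portion). Calcium-bound dye fluorescence at 480/520 nm.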
* = called active by the depositor; ? = inconclusive; . = not tested or not shown; & = joins results of further samples; [ ] = remark or other dose. Compounds as they come; any-hit rate near 5.1%.

SMILES | gsp antag | D2 PAM | Sfp PPTase inh | ClpP mod | Menin MLL FP FL | gsp ag | TRPV1 potentiator
COc1ccccc1N1CCN(C(=O)c2cc(-c3ccccc3)on2)CC1 | 9% | -1 | 14% | . | 0.0 | -11% | 12
O=C(c1ccc(COc2ccc(Cl)cc2)o1)N1N=C(C(F)F)CC1(O)C(F)F (stereo unspecified) | -16% | 7 | -52% | -1.6% | 2.7 | 6% | 14
CCOc1ccc(C2C(C(=O)Nc3ccccc3)=C(C)N=c3s/c(=C/c4cccc(OCC(=O)O)c4)c(=O)n32)cc1 (stereo unspecified) | ? | -12 | 79µM* | . | 25 | -15%[15.4 µM] | -10
Nc1cc(N)nc(SCc2cccnc2)n1 | 4% | 16 | -1% | 0.0% | 1.5 | -2% | -3
CNC(=S)N/N=C/c1cc(C)ccc1C | 3% | -16 | ? | -3.2% | 4.4 | -4% | 3
CCNc1nc(NCC)nc(SCCOC(=O)c2ccccc2)n1 | -6% | -15 | 11% | -0.1% | 3.3 | 3% | -1
O=C(Nc1cccnc1N1CCOCC1)c1cccs1 | 3% | -5 | 14% | 0.7% | -0.1 | 6%[15.4 µM] | 27
CC(=O)c1ccc(NCC2COc3ccccc3O2)c([N+](=O)[O-])c1 (stereo unspecified) | -12% | 1 | -14% | . | -0.6 | -9%[15.4 µM] | -9
CCOC(=O)C1(CC2CC2)CCN(Cc2cnc(N(C)C)s2)CC1 | 8% | -3 | -21% | 3.0% | -3.0 | -23% | -8
COc1cccc(OC)c1C(=O)NC(=S)N1CCN(c2ccc(C(F)(F)F)cc2[N+](=O)[O-])CC1 | -7% | -23 | 13% | 1.5% | 0.3 | 0% | 5
Cc1cccc(-n2c(CNC(=O)Cc3ccccc3)n[nH]c2=S)c1 | . | -2 | 13% | . | -0.6 | 4%[15.4 µM] | 28
CCOc1ccc(-c2[nH]ncc2Oc2ccccc2OCC)c(O)c1 | -1% | -5 | 24% | -1.2% | 3.9 | 2% | -7
Cc1ccc2c(C)c(C(=O)NCc3ccc(S(N)(=O)=O)cc3)oc2c1 | 2% | -4 | 19% | . | -0.5 | 9%[15.4 µM] | -22
Cc1cc(C)nc(N2CCCC(C(=O)NCCc3ccc(F)cc3)C2)n1 (stereo unspecified) | 20% | -19 | 19% | 11µM* | -0.5 | -27% | -11
CCOC(=O)C(C)Sc1nnc(Cc2cc(=O)[nH]c(=O)[nH]2)n1-c1cccc(OC)c1 (stereo unspecified) | 8% | -11 | -8% | 2.9% | -8.8 | 37% | .
NC(=O)CSc1nnc(-c2cc3ccccc3o2)n1Cc1ccccc1 | -3% | -9 | 18% | ? | 5.7 | ? | -14
C#CCOCCOCCOCCNc1nc(N2CCN(C(=O)[C@H](CCCCN)n3cc(CCCC)nn3)CC2)nc(N2CCN(C(=O)[C@H](CCCCN)n3cc(CCCC)nn3)CC2)n1 | 11% | -17 | -4% | -2.6% | 1.8 | 0% | 7
CN(Cc1ccc(F)cc1)S(=O)(=O)c1nnc(NC(=O)c2ccccc2Br)s1 | ? | -6 | 30% | -3.4%&-3.1% | -3.1 | 1% | 3
CNc1ccc(C(O)(C(F)(F)F)C(F)(F)F)cc1C(O)(C(F)(F)F)C(F)(F)F | 3% | -5 | 35%[activator] | -13% | 5.1 | 0% | -2
O=C(O)CN1C(=O)C(=O)N(Cc2ccccc2F)C1=O | 4% | 3 | 5% | -0.8% | 5.9 | -31%[inhibitor] | -5
O=C(NCCNC(=O)c1ccccc1Cl)c1ccco1 | 18% | -6 | 15% | 0.5% | -5.4 | 0%[15.4 µM] | 4
COc1ccc(NC(=O)CCNC(=O)Cn2cnc3ccccc3c2=O)c(OC)c1 | -4% | -6 | 7% | -0.3% | 2.3 | -25% | -10
Oc1ccc(C(=S)N2CCCCC2)cc1 | 9% | -15 | 50µM* | 1.3% | 5.3 | 11% | 15
Cc1cccc(NCC(=O)N/N=C\c2cccn2C)c1 | 2% | -2 | -6% | . | 3.6 | 3% | -16
Cn1ncc2c(=O)n(CC(=O)NC34CC5CC(CC(C5)C3)C4)cnc21 | 0% | 8 | 12% | -0.8% | 1.0 | -23% | -3
Cc1ccc(OCc2nnc(NC(=O)c3ccco3)s2)c(C)c1 | 2% | -1 | -12% | -5.4% | 1.1 | -66%[inhibitor] | 8
O=C1CC[C@@H](O)CCN1CC[C@H](Sc1ccccc1)c1ccccc1 | -18% | -7 | 13% | -0.2%&-0.5% | -2.6 | . | -29
CCOc1ccccc1Nc1nnc(SCC(=O)Nc2cc(C)on2)s1 | 5% | -14 | -6% | 0.4% | 1.4 | ? | 6
CCOc1ccc(S(=O)(=O)NCCCN2CCOCC2)c2ccccc12 | 24% | -15 | -6% | -5.1% | 6.3 | ? | -8
CC(=O)c1cnc2nc(C)nn2c1C | 11% | -15 | 16% | 5.1% | -1.6 | ? | 22
CN(C)CCNC(=O)Cc1ccc([N+](=O)[O-])cc1 | 6% | -3 | 2% | -2.5% | -3.3 | 12% | -5
CCc1ccccc1Nc1nn2c(=O)c3ccc(C(=O)NCc4ccccn4)cc3nc2s1 | ? | 2 | 18% | 46% | 5.2 | ? | 8
O=C(O)Cc1sc(N/N=C\c2ccncc2)nc1-c1ccccc1 | ? | 2 | 28µM* | -3.1% | ? | 23% | -2
NCCCC[C@H]1CNC(=S)N1CCc1cc(C(F)(F)F)cc(C(F)(F)F)c1 | 11% | 3 | 6% | 1.7% | 2.0 | . | 4
COc1cc(C(=O)Nc2cc(C(F)(F)F)ccc2Cl)cc(OC)c1OC | 7% | 11 | 17% | -11% | 0.2 | -1% | 14
CC(=O)c1c(C)[nH]c(C(=O)Nc2nc(C)cs2)c1C | -3% | -4 | 0% | . | -2.8 | -1%[15.4 µM] | -40
CC(=O)Nc1ccc(S(=O)(=O)N(C)S(=O)(=O)c2ccc(F)cc2)cc1 | -5% | -3 | -4% | 0.7% | 3.5 | 13% | 25
N/C(=N\OC(=O)c1ccncc1)c1cccc([N+](=O)[O-])c1 | -5% | 9 | -21% | . | -0.8 | 1% | 21
COc1ccc(Cl)cc1NC(=O)CSc1ncnc2c1oc1ccccc12 | -21% | -4 | 8% | 1.0% | 0.4 | 0% | 10
CN1CCN(S(=O)(=O)c2ccc(Oc3ccc(Br)cc3F)nc2)CC1 | 15% | 1 | . | . | . | 19%[15.4 µM] | 1
CC(=O)c1ccc([C@H]2C[C@@]34CN(C(=O)OC(C)(C)C)S(=O)(=O)[C@H]3C[C@H]2O4)cc1 | -4% | -8 | 4% | -4.8% | -4.4 | . | 9
CCCCn1c(=O)c2ccccc2n2c(=S)[nH]nc12 | -14% | -6 | ? | -3.2% | -2.9 | 19%[15.4 µM] | 4
COc1ccc(C(=O)N/N=C/c2ccc3cccc(OCc4ccccc4)c3n2)cc1 | 13% | -40 | ? | 3.2µM* | 16 | ? | 8
O=C(c1cc([N+](=O)[O-])ccc1Cl)N1CCN(c2ccc([N+](=O)[O-])cc2)CC1 | -13% | 7 | -10% | 0.8% | -0.6 | -17% | -3
O=C(COC(=O)c1ccccc1C(=O)c1ccc(Cl)cc1)NC(c1ccccc1)c1ccccc1 | 2% | -13 | 12% | -3.4% | 3.1 | -1% | 9
N=c1c2c(n(Cc3ccc([N+](=O)[O-])cc3)c3c1CCC3)CCCC2 | . | -7 | 28% | . | -2.2 | 32%[15.4 µM] | 2
O=C(c1cccc2ccccc12)C1CCCN(C(=O)c2ccc(N3CCOCC3)cc2)C1 (stereo unspecified) | -22% | -5 | -5% | . | -1.5 | 14%[15.4 µM] | -8
CC1(C)CC(=O)C2=C(C1)NC1=C(C(=O)c3ccccc31)C2c1cc([N+](=O)[O-])ccc1O (stereo unspecified) | -12% | -23 | -8% | . | -1.4 | 14µM* | 6
O=C(COc1ccc(S(=O)(=O)N2CCOCC2)cc1)NCCCn1ccnc1 | 8% | -5 | 17% | -0.1% | 2.0 | 1%[15.4 µM] | 5
CSc1cccc(NC(=S)NCCCN2CCN(c3ccc(F)cc3)CC2)c1 | 4% | -13 | 14% | . | 1.8 | -12%[15.4 µM] | -8
COc1ccc(N(CC(=O)NC2CCCCC2)S(=O)(=O)c2cccnc2)cc1 | 4% | 0 | -1% | 0.0% | 2.4 | -48%[inhibitor] | .
CCOC(=O)c1nnn2c1nc(N1CCN(c3ccccc3)CC1)c1ccccc12 | ? | -4 | 15% | . | -1.4 | 23% | -11
CC1CCN(CC(=O)N(C)c2c(N)n(Cc3ccccc3)c(=O)[nH]c2=O)CC1 | 15% | -8 | . | 0.7% | . | -4%[15.4 µM] | 6
Cc1ccc2c(c1)c1c(n2CC(O)CNC2CCCC2)CCCC1 (stereo unspecified) | -6% | -17 | -6% | ? | 1.5 | 4% | 23
Fc1ccc(CO/N=C/C2=C(Cl)c3ccccc3CC2)cc1 | 8% | -14 | ? | -2.9% | 1.1 | -28% | 3
O=C1Nc2cc(Cl)cnc2N2CCCC12 (stereo unspecified) | -3% | -10 | 50µM* | -8.1% | ? | 27% | 28
Cc1cc(C)n(-c2ccccc2[N+](=O)[O-])n1 | -7% | -2 | 7% | . | 1.1 | 7% | 1
COc1cc(CN2CCCC(C)C2)cc([N+](=O)[O-])c1O (stereo unspecified) | -2% | -6 | 10% | -1.5% | 3.3 | 1% | 7
CCOCc1c(C(=O)Nc2cc(OCC)c(N3CCOCC3)cc2OCC)oc2ccccc12 | . | -12 | 0% | . | 2.6 | 15%[15.4 µM] | 0

Only gsp ag (2 entries from above):
| canonical_smiles | gsp ag |
| --- | --- |
| COc1ccc(C(=O)N/N=C/c2ccc3cccc(OCc4ccccc4)c3n2)cc1 | ? |
| O=C(c1cc([N+](=O)[O-])ccc1Cl)N1CCN(c2ccc([N+](=O)[O-])cc2)CC1 | -17% |
